GIV-Gai inh: inhibitors of GIV GBA-motif binding to rat Galpha-i3; P08753; percent of control (FP), % (test concentration not listed); hit rate 0.42% among 210,000; Galpha-i3/FITC-GIV peptide fluorescence polarization, 90 min; stronger effect = lower value; scaled: aluminum fluoride 0%, vehicle 100%; AID 1224905;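 active = replicate mean at 85% of control or lower, very high polarization wells dropped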;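 also: wells of about 15 µL received 100 nL stock; the first replicate is given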
Target sequence (P08753 whole entry, looked up): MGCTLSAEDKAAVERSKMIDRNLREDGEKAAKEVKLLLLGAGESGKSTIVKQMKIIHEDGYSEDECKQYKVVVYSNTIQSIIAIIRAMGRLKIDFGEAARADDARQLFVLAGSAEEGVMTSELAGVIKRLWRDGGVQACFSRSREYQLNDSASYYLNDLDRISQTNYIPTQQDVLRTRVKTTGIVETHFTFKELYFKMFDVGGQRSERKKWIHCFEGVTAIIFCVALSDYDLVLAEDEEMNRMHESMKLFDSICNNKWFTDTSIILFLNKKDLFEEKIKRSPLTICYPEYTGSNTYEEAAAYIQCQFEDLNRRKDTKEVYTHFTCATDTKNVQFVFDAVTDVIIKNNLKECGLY
Sa growth 42C: inhibitors of Staphylococcus aureus growth at 42 °C; S. aureus RN4220 growth, OD600, 20 h; stronger effect = lower value; relative growth, % (test concentration not listed); hit rate 0.53% among 170,000;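 active = growth at 42 °C up to 50% and 20 or more points under that at 30 °C, or under 10% at both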;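 also: 300 nL library stock went into each well; scaled to the means of positive and negative controls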
HCMV NEC inh: cytomegalovirus nuclear egress complex inhibition; AID 1918969; hit rate 0.15% among 190,000; HTRF UL50-UL53 interaction, normalized percent inhibition; inhibition, % (no concentration beside the values);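 active = both replicates at 50% or more, plus weaker picks with an unusually low signal ratio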;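 also: stock transfer was 100 nL into about 20 µL; 0% = negative control wells and 100% = wells with untagged competitor protein; inactives centre near -12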
Sa growth 42C second temp: further read-out of Sa growth 42C, marked with its call; relative growth, %; measured here: growth at 30 °C;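 optical density after 20 h as mean of two plates; 100% = untreated growth and lower means inhibition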
The depositor's hits bear a star; / = not tested or not shown; & = joins results of further samples. Outcome played no part in choosing rows; 0.83% or so of the library scored in one or more.

SMILES	GIV-Gai inh	Sa growth 42C	Sa growth 42C second temp	HCMV NEC inh
COc1ccc(OCc2nc(N)nc(SC)n2)cc1	100	102	85	-2
Cc1ccc(S(=O)(=O)N(CC(=O)Nc2ccc3c(c2)OCO3)c2cc(Cl)cc(Cl)c2)cc1	101	104	102	19
COc1ccc(S(=O)Cc2ccc(C(=O)NCCc3ccc(SC)cc3)o2)cc1 (stereo not given)	109	100	102	-12
COc1ccc2[nH]cc(CCNc3ccc(S(=O)(=O)C(C)(C)C)nn3)c2c1	100	/	/	-22
CC1(C)NC(=O)N(CCC(=O)N2CCN(S(=O)(=O)c3cccs3)CC2)C1=O	/	104	91	1
Cc1ccc(NC(=O)C2CCC(CNS(=O)(=O)c3ccc4c(c3)CCCC(=O)N4)CC2)c(C)c1 (stereo not given)	99	91	87	/
CSc1ccc(C(=O)O)s1	89	94	80	-16
Cc1ccc(NC(=O)c2ccc3nc[nH]c3c2)cc1C	/	103	88	-12
CCOC(=O)C1CCCN(c2c(C(=O)c3ccccc3)cnc3ccc(F)cc23)C1 (stereo not given)	99	88	75	-12
COC(=O)c1ccc(-c2ccco2)n1CC(=O)Nc1cccc(C)c1C	108	95	88	-20
Cc1cccn2c(=O)c(/C=C(\C#N)c3nc4ccccc4n3C)c(Oc3ccc(Br)cc3)nc12	92	87	88	-35
Cc1ccc2c(c1)C(C)(c1ccccc1)CC(C)(C)N2C(=O)CSc1nncn1C (stereo not given)	97	/	/	-12
CCN(c1ccccc1)S(=O)(=O)c1cc(-c2onc(C)c2C)ccc1OC	99	92	89	/
Cc1cc(C)cc(N(CC(=O)Nc2cccc(C)c2C)S(=O)(=O)c2c(C)[nH]c(=O)[nH]c2=O)c1	105	114	88	-25
C[N+]1(CCOC(=O)C2(c3ccccc3)CCCC2)CCCCC1	104	118	90	/
CC(=O)NC(=O)c1cc2cc(Br)ccc2oc1=Nc1ccc(C)cc1	106	/	/	-10
CCOc1ccc(-c2cccc(NS(C)(=O)=O)c2)nn1	105	97	86	-31
Cc1ccc(Nc2cc(C(=O)O)nc3ccc(C)cc23)cc1	121	/	/	-58
O=C(CSc1nc(-c2ccccc2)nc2c1Cc1ccccc1O2)N1CCCCC1	106	110	80	-15
COc1ccc(CCCc2n[nH]c(=S)n2C)cc1C	102	91	59	-21
Cc1nn(-c2cc(N3CCCCC3)ncn2)c(C)c1CCC(=O)N1CCOCC1	100	/	/	-11
COc1ccc(C)cc1NS(=O)(=O)c1cc(Br)cc2c1N(C(C)=O)C(C)C2 (stereo not given)	100	102	92	0
COc1ccc(N2C(=O)CSCC2=O)cc1OC	106	98	96	-19
Cc1cccc(Cn2c(SCc3ccc(C(=O)NCc4cccs4)cc3)nc3ccncc32)c1	106	122	108	-2
O=C1c2oc3ccccc3c(=O)c2C(c2cccc(O)c2)N1Cc1ccccc1 (stereo not given)	104	98	84	-28
COc1ccc(CNC(=O)c2sc3nc4n(c(=O)c3c2C)CCCC4)cc1	96	109	88	-8
CCC(C)c1ccccc1NC(=O)COc1ccc2c(c1)OCO2 (stereo not given)	/	99	93	-7
Cc1cc(C)cc(NC(=O)c2cccc3c2C(=O)N(C2CCCCC2)C3)c1	106	106	87	-20
O=C1CC(CCC(=O)NC2CC2)c2ccccc2N1 (stereo not given)	107	106	92	1
O=C(O)CCc1nc(-c2ccccn2)no1	101	90	87	2
O=C(Cn1c(=O)n(Cc2ccc(Cl)cc2)c(=O)c2cccnc21)Nc1ccccc1C(F)(F)F	105	116	96	-18
CC(=O)n1ccc2ccc(C(=O)CN3CCN(c4cc(Cl)ccc4C)CC3)cc21	100	/	/	-12
O=C(CCNS(=O)(=O)c1ccc(Br)cc1)NC1CCCC1	103	114	91	/
COc1cccc(CN(C(=O)c2cccc(C)c2)C2CCS(=O)(=O)C2)c1 (stereo not given)	96	109	85	-11
N#Cc1c(-c2ccccc2)nc2n1CCS2	102	87	85	-42
COc1ccccc1CCNC(=O)c1ccoc1C	107	121	79	-4
Nc1nc(=S)nc(Cc2ccc3c(c2)CCC3)[nH]1	/	45*	70*	0
Cc1ccc(-c2nc(N3CCN(c4ccc(F)cc4)CC3)c3ccccc3n2)cc1	105	86	80	7
COc1ccc(S(=O)(=O)c2c(C(=O)c3ccccc3)cnc3cc(OC)c(OC)cc23)cc1	110	90	89	/
Cc1ccc(S(=O)(=O)NCCS(=O)(=O)N2CCN(c3ccccc3)CC2)cc1	104	83	92	/
COC(=O)c1noc(C)c1-c1ccnn1S(=O)(=O)c1cccc(C(F)(F)F)c1	106	99	90	-35
COc1ccc(C2=NN(CC(=O)N3CCCC3)C(=O)CC2)cc1	101	126	83	/
c1ccc(Nc2nc3ccccc3o2)cc1	/	124	85	-18
Fc1ccc(Cn2c(SCc3cccc(Cl)c3)nc3ccncc32)cc1	97	/	/	-9
C=CCSc1n[nH]c(=O)n1-c1ccc(Cl)cc1	100	94	90	-11
Fc1ccc(N2CCN(C3=Nc4cccc5cccc3c45)CC2)cc1	/	102	31	-63
CCOC(=O)c1cnn(-c2ncnc3sc4c(c23)CCCC4)c1N	102	112	90	/
CCOC(=O)c1csc(NC(=O)CN2CCOCC2)n1	103	103	101	-14
CCN(CC)CCCNC(=O)c1nn(C)c2c1CS(=O)(=O)c1ccccc1-2	102	103	87	-8
CC(OC(=O)CSc1nc2ccccc2o1)C(=O)c1ccc(OC(F)F)cc1 (stereo not given)	/	100	93	15
C=CCNC(=O)CSc1nncn1-c1ccccc1	/	104	98	4
CC1CCN(S(=O)(=O)c2cnc[nH]2)CC1	99	96	85	/
Cc1ccc(-c2nc3nc(C)cc(Nc4ccc(Br)c(C)c4)n3n2)cc1	104	/	/	-9
COc1ccc(-c2cc(C(=O)NCC(C)C)no2)cc1OC	112	96	84	/
Cc1ccc(S(=O)(=O)Nc2c(C#N)c3nc4ccccc4nc3n2Cc2ccccc2)cc1	/	99	82	77*
Cc1cc(C)c(NC(=O)c2cc3c([nH]c2=O)CCCC3=O)c(C)c1	101	/	/	-29
CC(=O)OC(C(=O)c1ccccc1)c1ccccc1 (stereo not given)	/	91	91	-9
C=CCn1c(COc2ccc(F)cc2)nnc1SCC(=O)c1ccc[nH]1	/	82	84	-32
O=C1Nc2cc(C(=O)NC3CC3)ccc2S/C1=C\c1ccccc1	102	106	82	/
CC(=O)Oc1cccc(C(=O)N(C(C)C)C(C)C)c1	106	99	93	-3
(continued)
SMILES	GIV-Gai inh	Sa growth 42C	Sa growth 42C second temp	HCMV NEC inh
CSc1nsc(SCC(=O)c2ccccc2)n1	105	108	93	-52
CCCCNc1ccc(-c2nc(-c3ccco3)no2)cc1[N+](=O)[O-]	103	108	91	-5
CCOc1ccc(S(=O)(=O)n2nc(C)c(S(=O)(=O)N3CCCCC3)c2C)cc1	103	95	89	/
COc1ccccc1NS(=O)(=O)c1ccc2oc(SCC(=O)c3ccc4c(c3)NC(=O)CO4)nc2c1	/	93	93	-4
Cc1cccc(Cn2c(=O)n(-c3cc(C)cc(C)c3)c(=O)c3oc4ccccc4c32)c1	102	85	96	/
O=C(NC(CC(=O)N1CCN(C(=O)c2ccco2)CC1)c1ccccc1)c1ccccc1Cl (stereo not given)	/	106	98	8
CCC(C)NC(=O)Nc1cc2c(cc1Oc1ccccc1)n(C)c(=O)n2C (stereo not given)	107	/	/	-38
COc1ccc(Cn2nnc3cc(C(=O)NCc4ccc(OC)cc4OC)ccc32)cc1	111	/	/	-25
COc1ccc(C2C(C#N)=C(N)Oc3c2ccc(=O)c2c(C)oc(C)c32)cc1 (stereo not given)	121	82	84	-12
CN(C(=O)CSc1nc(-c2ccco2)cc(C(F)(F)F)n1)c1ccccc1	93	91	105	-10
CC(=O)SC1CC(=O)N(c2ccc(F)c(F)c2F)C1=O (stereo not given)	98	82	67	-20
CC1CCN(S(=O)(=O)c2ccc3c(c2)N(CC(=O)NC(C)c2ccccc2)C(=O)CO3)CC1 (stereo not given)	109	99	86	18
COc1ccc(NC(=O)C2C3C=CC4(O3)C2C(=O)N(Cc2cccnc2)C4C(=O)NC2CCCCC2)cc1 (stereo not given)	101	100	94	9
COc1ccc(OC)c(-c2noc(NCCc3ccc(Cl)cc3)n2)c1	100	132	81	/
Cc1ccccc1-n1c(=O)c2c3c(sc2n2cnnc12)CCCC3	105	114	86	-10
Cn1c(=O)c2c(-c3cccc(Br)c3)n(C(C)(C)CO)cc2n(C)c1=O	100	115	90	-6
COc1ccc(NC(=O)NCc2cccn2Cc2ccc(F)cc2)cc1OC	109	113	93	-14
Cc1ccc(NC(=O)CSc2[nH]c(=O)ncc2C)cc1	103	96	81	/
FC(F)(F)c1ccc(-c2nnc(-c3ccc(Cl)cc3)o2)nc1	101	108	92	0
Cn1c(=O)c(-c2noc(CCC(=O)Nc3cccnc3Cl)n2)nn(-c2ccccc2)c1=O	98	/	/	-111
CN(C)CCNC(=O)Nc1ccc(F)cc1F	110	100	98	-6
COc1ccc(CNC(=O)C2CCN(C(=O)c3ccc(-n4ccc5ccccc54)s3)CC2)cc1	104	100	92	/
O=C(c1cc(-c2cccnc2)n[nH]1)N1CCCC(C(=O)N2CC=C(c3ccccc3)CC2)C1 (stereo not given)	100	/	/	-12
CC1C(=O)ON(c2ccccc2)C(=O)N1C (stereo not given)	100	76	90	/
O=C(c1cccc(-c2nnc(-c3ccccc3)o2)c1)N1CCCCC1	108	118	94	-17
CC1=Nn2c(nnc2-c2ccccc2)SC1	101	85	78	-38
Cc1nc2ccccn2c(=O)c1NC(=O)c1cccc(F)c1	95&101	95	92	/
CCSc1nn(CC(=O)Nc2cc(C)cc(C)c2)c(N)c1S(=O)(=O)c1ccc(Cl)cc1	101	/	/	-26
COc1ccccc1C(=O)OCCCN(C1=NS(=O)(=O)c2ccccc21)c1ccccc1	105	/	/	12
Cc1cccc(NC(=O)CN(C)S(=O)(=O)c2ccc3c(c2)c(=O)n(C)c(=O)n3C)c1C	104	94	100	5

2 compounds from above, limited to GIV-Gai inh, HCMV NEC inh and Sa growth 42C.
mol	GIV-Gai inh	HCMV NEC inh	Sa growth 42C
COc1ccc(NC(=O)NCc2cccn2Cc2ccc(F)cc2)cc1OC	109	-14	113
Cc1ccc(NC(=O)CSc2[nH]c(=O)ncc2C)cc1	103	/	96

More results:
SMILES	GIV-Gai inh	Sa growth 42C	Sa growth 42C second temp	HCMV NEC inh
Cc1ccc(C)c(S(=O)(=O)NCCc2csc(-c3ccc(Cl)cc3)n2)c1	106	93	71	/
CC(=O)N1c2c(cc(Br)cc2S(=O)(=O)Nc2ccccc2C)CC1C (stereo not given)	97	110	88	-12
COc1cc(OC)c(NC(=O)Cn2ncc3c2-c2cc(C)ccc2OC3)cc1Cl	102	100	91	-2
Cc1cc(NCCOCCO)n2nc(-c3ccccc3)c(C)c2n1	106	/	/	-18
Cc1cc(N2CCCC2=O)c(N)cc1N	101	94	108	-7
Cn1cc(S(=O)(=O)N2CCc3ccccc32)cc1C(=O)Nc1ccc(C(F)(F)F)cc1	101	105	89	-15
O=c1c(Br)cccc(Br)c1O	101	17	18	-55
CCCNc1nc2ccccc2s1	99	89	86	-48
Cc1ccc(S(=O)(=O)N(Cc2ccccc2)Cc2ccco2)cc1	100	92	90	-4
CCn1c(CN2CCCCCC2=O)nnc1SC(C)c1nc2ccccc2c(=O)[nH]1 (stereo not given)	/	105	108	-2
O=C(NCC1COc2ccccc2O1)C(NS(=O)(=O)c1cccc2nsnc12)c1ccccc1 (stereo not given)	102	120	79	-51
CCOC(=O)c1cc(-c2ccc(OC)c(S(=O)(=O)N(C)Cc3ccccc3)c2)on1	102	91	80	-27
O=C(NCCN1CCCCC1)c1cc2n(n1)CCCN(Cc1ccc(F)cc1)C2=O	98	/	/	-19
C=CCNc1nc(C(=O)OCC2COc3ccccc3O2)cs1 (stereo not given)	/	97	86	-28
O=c1oc(-c2cccnc2Oc2ccccc2)nc2cccc(F)c12	98	84	94	/
COc1cccc(-c2nc(CC(=O)OCC(=O)NC3CCS(=O)(=O)C3)cs2)c1 (stereo not given)	/	114	100	2

Filtered by structure, the entries above with two or more sulfur atoms.
SMILES	GIV-Gai inh	Sa growth 42C	Sa growth 42C second temp	HCMV NEC inh
COc1ccc(S(=O)Cc2ccc(C(=O)NCCc3ccc(SC)cc3)o2)cc1 (stereo not given)	109	100	102	-12
CC1(C)NC(=O)N(CCC(=O)N2CCN(S(=O)(=O)c3cccs3)CC2)C1=O	/	104	91	1
CSc1ccc(C(=O)O)s1	89	94	80	-16
Cc1cccc(Cn2c(SCc3ccc(C(=O)NCc4cccs4)cc3)nc3ccncc32)c1	106	122	108	-2
Cc1ccc(S(=O)(=O)NCCS(=O)(=O)N2CCN(c3ccccc3)CC2)cc1	104	83	92	/
CSc1nsc(SCC(=O)c2ccccc2)n1	105	108	93	-52
CCOc1ccc(S(=O)(=O)n2nc(C)c(S(=O)(=O)N3CCCCC3)c2C)cc1	103	95	89	/
COc1ccccc1NS(=O)(=O)c1ccc2oc(SCC(=O)c3ccc4c(c3)NC(=O)CO4)nc2c1	/	93	93	-4
CCSc1nn(CC(=O)Nc2cc(C)cc(C)c2)c(N)c1S(=O)(=O)c1ccc(Cl)cc1	101	/	/	-26
Cc1ccc(C)c(S(=O)(=O)NCCc2csc(-c3ccc(Cl)cc3)n2)c1	106	93	71	/
O=C(NCC1COc2ccccc2O1)C(NS(=O)(=O)c1cccc2nsnc12)c1ccccc1 (stereo not given)	102	120	79	-51
COc1cccc(-c2nc(CC(=O)OCC(=O)NC3CCS(=O)(=O)C3)cs2)c1 (stereo not given)	/	114	100	2

Assay outcomes (PubChem BioAssay)
